# Compound activity: PubChem BioAssay, National Center for Advancing Translational Sciences (NCATS)
# StopGo RLuc – Primary qHTS Assay for Foot and Mouth Disease Virus Antivirals against NCGC Sytravon and CBC Compound Libraries: Renilla Luciferase Signal | HEK cells with a luciferase reporter of 2A StopGo recoding | Potency, µM (series often up to 57.5 µM), without a hit: at the top dose signal change, negative = less light | hit rate 0.32% among 120,000 | AID 1745857, 2022; active means well fitted falling curve with a large enough effect; inconclusive means small, poorly fitted or top-dose-only effect; inactive means no such curve, though single readings can be large or run the other way; note: nearly all actives have a fitted effect of over 55% in size; overnight with compound
# 2A firefly – Primary qHTS Assay for Foot and Mouth Disease Virus Antivirals against NCGC Sytravon and CBC Compound Libraries: Firefly Luciferase Signal. HEK cells with a luciferase reporter of 2A StopGo recoding. hit rate 0.23% among 120,000. Potency, µM (titrated, usually from 57.5 µM), inactives show at the highest dose signal change, negative = less light; active = well fitted falling curve with a large enough effect; inconclusive = small, poorly fitted or top-dose-only effect; inactive = no such curve, though single readings can be large or run the other way; note: nearly all actives have a fitted effect of over 60% in size; overnight with compound
# An asterisk follows results filed as active; ? = inconclusive; [ ] = dose if it differs, or a comment. % is set by controls: 0 for no effect and ±100 for the full control effect; potency is the fitted concentration of half-maximal effect. Only part of the results is shown. The share of hits here may be higher or lower than overall.
SMILES,StopGo RLuc,2A firefly
COc1ccc(NC(=O)c2ccco2)cc1NC(=O)COc1cc(C)ccc1C(C)C,-5.4%,-11.6%
COc1ccccc1NC(=O)c1oc2ccccc2c1NC(=O)C1CCCCC1,-2.3%,-5.6%
CC(NC(=O)CN1CCN(S(=O)(=O)c2ccc3ccccc3c2)CC1)c1cccs1 (stereo not given),7.5%,-6.3%
COc1ccc(N2CCN(CCCNC(=O)Cn3c(-c4cccs4)cc4ccccc43)CC2)cc1,-1.9%,0.1%
O=C(CC(NCc1cccnc1)C(=O)O)Nc1ccc(O)cc1 (stereo not given),-16.6%,14.6%
Cc1ccc(CNC(=O)c2ccc(CSc3nc4ccncc4n3Cc3ccc(C)cc3)cc2)cc1,-33.2%,-19.0%
COc1cc(CN(C(=O)c2ccc3c(c2)NC(=O)CS3)C2CC2)ccc1OC(F)F,?,?
COc1ccc(N2CC(C)Cn3c2nc2c3c(=O)[nH]c(=O)n2C)cc1 (stereo not given),-14.9%,-8.7%
CCOc1ccc(-n2c(SCC(=O)Nc3cc(C)on3)nc3c([nH]c4ccccc43)c2=O)cc1,-10.3%,2.8%
CC(Nc1ccc(F)cc1)c1nc(-c2ccco2)no1 (stereo not given),0.8%,0.0%
Cc1cccc(C2CCCN2C(=O)c2cc(-c3ccco3)on2)c1 (stereo not given),19.7%,0.0%
COc1cc(/C=C/c2nc3ccccc3s2)cc(OC)c1OC,41.0%[activator],254.4%[activator]
CCCOC(=O)c1ccc(Oc2c(C)oc3cc(OC(=O)N4CCOCC4)ccc3c2=O)cc1,-6.0%,3.6%
CCCNC(=O)CN1CCN(c2ccc(NC(=O)c3ccc(OC)cc3)cc2C(=O)O)CC1,1.4%,6.3%
CCN1CCN(c2oc(COc3cccc(Cl)c3)nc2C#N)CC1,-9.9%,-1.3%
CC1CN(C(=O)COc2cc3oc(=O)cc(-c4ccccc4)c3cc2Cl)CCO1 (stereo not given),5.2%,12.1%
O=C(Nc1sc2c(c1C(=O)NCc1cccnc1)CCCC2)c1cc(=O)c2ccccc2o1,6.4%,-7.6%
O=C(Oc1ccc2c(=O)c(-c3ccccc3)coc2c1)c1ccco1,7.1%,94.6%[activator]
COc1ccc(-c2nc(CNS(=O)(=O)c3ccc(C)cc3)cs2)cc1,65.3%[activator],0.0%
COc1ccccc1CNC(=O)c1cc(Br)ccc1O,84.9%[activator],23.8%
Cc1cccc2sc(N(Cc3cccnc3)C(=O)CCc3ccccc3)nc12,38.1%[activator],-3.6%
CCCn1nc(C(=O)Nc2ccccc2Br)c2ccccc2c1=O,3.9%,7.6%
CSc1ccc(C2=NN(S(C)(=O)=O)C(c3ccc4nccnc4c3)C2)cc1 (stereo not given),-4.3%,0.0%
O=C(NCCN1CCN(C(=O)CCc2c[nH]c3ccccc23)CC1)c1ccco1,4.5%,17.9%
CC(C)NC(=O)c1ccc2c(c1)nc1n2CCN(Cc2ccccc2)C1,-2.3%,4.1%
CCOc1ccc2c(=O)c(Oc3ccccc3Br)c(C)oc2c1,4.0%,-1.1%
CSc1nc(C)cc(C(=O)O)n1,5.2%,-6.5%
CCCCN(C)S(=O)(=O)NC1CCN(c2ncccn2)CC1,11.7%,-11.1%
O=C(NCC(c1ccc2c(c1)OCO2)N1CCOCC1)c1ccc(F)cc1 (stereo not given),133.5%[activator],46.5%[activator]
CCOc1ccc(-c2cc(C(=O)N3CCN(c4ccc(C)cc4)C(C)C3)c3ccccc3n2)cc1 (stereo not given),-12.1%,46.2%[activator]
CCc1nn2c(=O)cc(CNc3cccc(C(C)=O)c3)nc2s1,3.1%,20.8%
COc1ccccc1-c1nc(-c2ccc(Br)o2)no1,-12.1%,61.9%[activator]
COc1ccc(CNC(=O)c2sc3nc4n(c(=O)c3c2C)CCC4)cc1,-18.2%,-7.8%
CC(C)(C)NC(=O)CSc1ncnc2ccccc12,-10.7%,36.2%[activator]
O=C(OCCCc1ccccc1)c1cccnc1,8.9%,11.2%
O=C(NC(C1CC1)C1CC1)c1ccc(Cl)c(Cl)c1,46.0%[activator],20.2%
CCOC(=O)N1CCc2c(sc(NCc3ccc(OC)c(OC)c3OC)c2C(=O)Nc2ccc(OC)cc2OC)C1,8.5%,-25.6%
O=C(NC1CCCCC1)c1ccc(CSc2nc3ccncc3n2Cc2cccc(F)c2)cc1,-4.9%,-6.1%
Cc1cc(C)c(NC(=O)c2sc3nc(C)cc(C)c3c2NC(=O)c2ccccc2)c(C)c1,-9.2%,6.1%
CCOC(=O)c1nnn(CC(=O)Nc2ccc(C)cc2Cl)c1C(=O)OCC,5.8%,7.2%
Cc1cc(C)cc(OCC(=O)Nc2c(C(=O)c3ccccc3)oc3ccccc23)c1,5.3%,-5.4%
CCOC(=O)CSc1nc2ccc(NC(=O)COc3ccccc3)cc2s1,-6.5%,-1.1%
COc1ccccc1CCNc1ncnc2c1nnn2C,-6.0%,6.6%
Cc1c(-c2ccccc2)oc2c(C(=O)OCC(=O)Nc3cc(Cl)ccc3F)cccc2c1=O,-1.8%,3.6%
N#Cc1ccc(S(=O)(=O)N2CCN(C(=O)c3ccc(Cn4nnc5ccccc54)cc3)CC2)cc1,?,?
COc1ccc(-c2nc(CS(=O)CC(=O)NCCN3CCCCC3C)c(C)o2)cc1OC (stereo not given),-8.8%,9.6%
O=C(O)CSCC(=O)NC1CCSC1=O (stereo not given),-11.0%,-21.7%
CCc1cccc(C)c1NC(=O)c1ccc2ccccc2n1,-29.3%,21.6%

# Compounds listed so far containing a COOH group (4):
SMILES,StopGo RLuc,2A firefly
O=C(CC(NCc1cccnc1)C(=O)O)Nc1ccc(O)cc1 (stereo not given),-16.6%,14.6%
CCCNC(=O)CN1CCN(c2ccc(NC(=O)c3ccc(OC)cc3)cc2C(=O)O)CC1,1.4%,6.3%
CSc1nc(C)cc(C(=O)O)n1,5.2%,-6.5%
O=C(O)CSCC(=O)NC1CCSC1=O (stereo not given),-11.0%,-21.7%

# (continued)
SMILES,StopGo RLuc,2A firefly
COCCNC(=O)CS(=O)(=O)Cc1nc(-c2ccccc2C)oc1C,2.4%,-2.6%
CCCCCCCCS(=O)(=O)CCOS(=O)(=O)CCCCCCCC,-6.7%,5.6%
COc1ccc(-c2cc3ccc(O)cc3oc2=O)cc1,78.0%[activator],28.0%
O=c1ccc(-c2ccccc2)nn1Cc1c(F)cccc1Cl,4.7%,33.1%[activator]
CCN(c1ccccc1C)S(=O)(=O)c1ccc(N2CCCCS2(=O)=O)cc1,1.1%,3.0%
O=C(CN1CCN(Cc2ccc(F)cc2)C1=O)NCc1ccc(F)cc1,16.3%,7.8%
O=C(Nc1ccc(F)c(Cl)c1)N1CCC(CN2CCOCC2)CC1,7.1%,0.2%
CC(=O)N(CCC1(C(C)C)CCOC(C)(C)C1)Cc1ccccc1 (stereo not given),-1.4%,-8.3%
O=C(NC1CCCCC1)c1c[nH]c2ccc(S(=O)(=O)Nc3ccccc3F)cc2c1=O,170.8%[activator],-0.6%
Cn1c(=O)c2c(nc(Cl)n2CCOc2cccc(Cl)c2)n(C)c1=O,0.5%,10.6%
Cc1c(C(=O)NCc2ccccc2Cl)cccc1-n1cnc2cccnc21,36.2%[activator],0.1%
COC(=O)c1cc2oc(C)cc2n1Cc1cccc(Cl)c1,-6.5%,-0.8%

# Reformatted with each value named: 4 of the compounds above.
COc1ccc(-c2cc3ccc(O)cc3oc2=O)cc1
  StopGo RLuc: 78.0%[activator]; 2A firefly: 28.0%

O=c1ccc(-c2ccccc2)nn1Cc1c(F)cccc1Cl
  StopGo RLuc: 4.7%; 2A firefly: 33.1%[activator]

CCN(c1ccccc1C)S(=O)(=O)c1ccc(N2CCCCS2(=O)=O)cc1
  StopGo RLuc: 1.1%; 2A firefly: 3.0%

O=C(CN1CCN(Cc2ccc(F)cc2)C1=O)NCc1ccc(F)cc1
  StopGo RLuc: 16.3%; 2A firefly: 7.8%

# Compound profiles, from the list above.
# `CCCCCCCCS(=O)(=O)CCOS(=O)(=O)CCCCCCCC` as listed: StopGo RLuc: -6.7%; 2A firefly: 5.6%
# `O=C(NC1CCCCC1)c1c[nH]c2ccc(S(=O)(=O)Nc3ccccc3F)cc2c1=O` as listed: StopGo RLuc: 170.8%[activator]; 2A firefly: -0.6%

# Additional structures follow:
SMILES,StopGo RLuc,2A firefly
Cc1ccc(C)c(C(=O)CSc2nnnn2C)c1,-2.3%,7.1%
CCOC(=O)c1sc(NC(=O)N2CCN(CCO)CC2)c(C(=O)OCC)c1C,4.3%,12.0%
C[C@H](NC(=O)[C@@H]1Cc2ccccc2CN1C(=O)OC(C)(C)C)C(=O)Nc1ccc2c(c1)OCCO2,6.5%,0.0%
CC(=O)c1ccc(S(=O)(=O)NCCc2cccc3cccnc23)cc1,153.3%[activator],-2.8%
Cc1c(C(=O)Nc2ccccc2)nnn1-c1ccc2noc(-c3ccccc3)c2c1,15.7%,237.4%[activator]
CCc1ccccc1NC(=O)Cn1c(=O)ccc2cc(S(=O)(=O)N3CCC(C)CC3)ccc21,24.7%,-18.4%
Cc1cc(C(F)(F)F)c(C#N)c(=S)[nH]1,-7.2%,-10.9%
NC(=O)CN1CCCC1=O,-3.7%,-12.0%
NC1=[N+](Cc2ccccc2)C[C@H]2C(=C3CCCC[C@H]3n3c(=O)n(-c4ccccc4)c(=O)n32)N1,-7.8%,-8.4%
CCc1ccccc1NC(=O)CN1C(=O)CCSc2ccc(S(=O)(=O)N3CCCC3)cc21,-11.1%,-0.1%
CCOC(=O)CNC(=O)N1CCc2cc(S(=O)(=O)N3CCC(C)CC3)ccc21,11.2%,11.9%
COCCCNC(=O)/C=C/C(=O)O,8.4%,5.9%
COc1ccc(NC(=O)C(Cc2ccccc2)NS(=O)(=O)c2ccc3c(c2)oc(=O)n3C)c(OC)c1 (stereo not given),9.1%,-12.4%
CC(C)c1ccc(NC(=O)COC(=O)Cn2cnc3c2c(=O)n(C)c(=O)n3C)cc1,-3.9%,68.7%[activator]
CC(c1ccccc1)N(C)C(=O)CSc1cc(C(=O)NC2CC2)c2ccccc2n1 (stereo not given),123.0%[activator],18.8%
COc1ccc(-c2noc(-c3cccc(OCC(=O)N4CCN(c5ccccc5)CC4)c3)n2)cc1,6.2%,25.7%
COc1cc(OC)c(OC)cc1/C=C1\Oc2cc(OC(=O)c3ccc(C(C)(C)C)cc3)ccc2C1=O,28.1%,24.3%
CN(CC(=O)Nc1c(Cl)cccc1Cl)CC(=O)N1CCCCCC1,2.8%,3.8%
COc1ccc(CCN2C(=O)N(c3ccc(F)cc3)C(=O)C2CC(=O)Nc2ccccc2)cc1OC (stereo not given),20.7%,-8.3%
O=C(CCn1c(=O)c2cccn2c2cccnc21)NCc1ccccc1Cl,2.4%,3.2%
Cc1cccc(CNS(=O)(=O)c2csc(C(N)=O)c2)c1,95.6%[activator],-8.7%
Cc1ccc(C(Nc2ccccn2)c2ccc3cccnc3c2O)cc1 (stereo not given),-4.8%,2.7%
CC(=O)N1CCc2cc(S(=O)(=O)NC(Cc3ccccc3)C(=O)NCc3ccccc3)ccc21 (stereo not given),40.8%[activator],-17.9%
Cn1c(=O)c2c(nc(NCCCc3ccccc3)n2Cc2cccc(Cl)c2)n(C)c1=O,-17.7%,-17.9%
Cn1c(=O)[nH]c(=O)c2c1nc(SCCO)n2Cc1ccccc1Cl,28.8%,0.0%
CC(Sc1ccc2ccccc2n1)C(=O)NC1(C#N)CCCCC1 (stereo not given),16.8%,0.0%
CCOC(=O)c1cnc2c(C)cccc2c1Nc1ccc(C(C)=O)cc1,-4.7%,-22.7%
CCCCCCSc1nc2c(c(=O)[nH]c(=O)n2C)n1CC,-3.9%,-4.7%
Cc1ccc2c(=O)c(S(=O)(=O)c3ccccc3)cn(CC(=O)Nc3ccc4c(c3)OCCO4)c2n1,20.3%,0.0%
Cn1ccc2ccc(C(=O)Nc3nnc(C4CC4)s3)cc21,22.7%,234.1%[activator]

# An excerpt of these results, field by field.
> Cn1ccc2ccc(C(=O)Nc3nnc(C4CC4)s3)cc21
  StopGo RLuc = 22.7% | 2A firefly = 234.1%[activator]
> CC(Sc1ccc2ccccc2n1)C(=O)NC1(C#N)CCCCC1 (stereo not given)
  StopGo RLuc = 16.8% | 2A firefly = 0.0%
> CCOC(=O)c1cnc2c(C)cccc2c1Nc1ccc(C(C)=O)cc1
  StopGo RLuc = -4.7% | 2A firefly = -22.7%
